Compound activity from PubChem BioAssay.
Biofilm kill mix – mixture kills Candida albicans biofilm cells. C. albicans biofilm persisters + clotrimazole, fluorescence viability; primary screen in compound mixtures of four per well. inhibition, % at 7.6 µM. 120,000 compounds, 0.02% hits. AID 1242;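 active means inhibition above 30.3% in the primary screen of four-compound pools, then above 30% when the compound was retested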;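 further: compounds exposed to preformed 24 h biofilms for 48 h; the number belongs to the whole pool; some results filed as inactive read as strong as hits; inactives centre near 12; 0% = biofilm with clotrimazole alone and 100% = kill control; retested singly at about 60 µM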
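Test system: C. albicans biofilms. Buffer or medium: RPMI/MOPS medium, pH 7.0. Timing: 48 h compound exposure at 37 °C. Technique: Alamar Blue fluorescence. Evaluation: percent inhibition of biofilm viability.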
* = called active by the depositor. This is a subset, so the mix of outcomes need not match the whole.

The opening five compounds (preview)
SMILES	Biofilm kill mix
Cc1ccc(C2SCCN2C(=O)c2ccc([N+](=O)[O-])cc2)cc1 (stereo not drawn)	15.7
CCOc1ccc(-n2cnc3c(=O)[nH]c(N)nc32)cc1	4.0
COc1ccc(CNC(=O)c2cccnc2Sc2ccc(C)c(C)c2)cc1	10.9
Cc1cc(CNC(=O)COc2ccc([N+](=O)[O-])cc2)c2ccccc2n1	1.1
CCN1CCN(C(=O)c2ccccc2Nc2ccc(SC(F)F)cc2)CC1	7.7

This part in full (from the top)
SMILES	Biofilm kill mix
Cc1ccc(C2SCCN2C(=O)c2ccc([N+](=O)[O-])cc2)cc1 (stereo not drawn)	15.7
CCOc1ccc(-n2cnc3c(=O)[nH]c(N)nc32)cc1	4.0
COc1ccc(CNC(=O)c2cccnc2Sc2ccc(C)c(C)c2)cc1	10.9
Cc1cc(CNC(=O)COc2ccc([N+](=O)[O-])cc2)c2ccccc2n1	1.1
CCN1CCN(C(=O)c2ccccc2Nc2ccc(SC(F)F)cc2)CC1	7.7
CCCC1(CCC)NC(=O)N(CC(=O)c2cc(C)n(-c3ccc4c(c3)OCO4)c2C)C1=O	17.8
Cc1ccc(OC(=O)COc2ccccc2C)c(-n2nc3ccccc3n2)c1	12.0
COc1cc(CNCCN2CCOCC2)ccc1OCC(=O)NC(C)(C)C	11.3
CC(C)Oc1ccccc1OCCCCn1cnc2ccccc2c1=O	8.7
COC(=O)c1ccc(SCC(=O)NC2CCCCC2)c([N+](=O)[O-])c1	6.8
CC(C)c1ccc(C2NC(=O)CCC2[N+](=O)[O-])cc1 (stereo not drawn)	27.4
Cc1ccc(S(=O)(=O)n2c(=O)oc3ccccc32)cc1	17.2
CC(=O)OCC(=O)[C@@]1(O)[C@H](C)C[C@H]2[C@@H]3CCC4=CC(=O)C=C[C@]4(C)[C@@]3(F)[C@@H](O)C[C@@]21C	29.6
C/C(=N\NC(=O)c1cc2ccccc2cc1O)c1cc2ccccc2o1	17.7
C=C(C)C(=O)Nc1cccc(C2=NOC3(C2)C[C@H](C(N)=O)N(C(=O)c2ccccc2)C3)c1 (stereo partly drawn)	10.6
CCOC(=O)C(NC(=O)c1ccccc1Cl)(Nc1ccc(C(F)(F)F)cc1)C(F)(F)F (stereo not drawn)	9.7
CCOC(=O)c1c(OCCO)noc1N	18.7
Cc1ccnc(NC(=O)c2cc([N+](=O)[O-])cc([N+](=O)[O-])c2)c1	13.1
O=C(CNC(=O)COc1ccccc1)NCCc1ccccn1	19.6
Cc1ccsc1-c1n[nH]c(=S)n1CC(C)C	14.6
O=C(O)CCCc1ccccc1	12.1
O=Cc1ccc2cccnc2n1	15.0
COC(=O)c1cccc(NC(=O)/C=C/c2ccc3c(c2)OCO3)c1	14.1
CCOc1ccccc1NC(=O)NC(=O)N(C)S(=O)(=O)c1ccc(C)cc1	14.4
COC(=O)c1ccc(NCCC(=O)O)cc1	6.3

Remaining list, next part:
SMILES	Biofilm kill mix
COc1ccc(CC(=O)OCC(=O)Nc2cc(S(=O)(=O)N3CCOCC3)ccc2N2CCCC2)cc1	12.0
O=C(O)c1cc(-c2cccs2)[nH]n1	9.1
CCn1cc(CNC(=O)NC2CCCCC2)c(C)n1	19.8
COc1cc2c(cc1OC)C(NC(=O)C(F)(F)F)C/C2=N\O (stereo not drawn)	17.1
C#Cc1ccc([C@@H]2C=C(C(=O)N3CCN(Cc4ccc5c(c4)OCO5)CC3)O[C@H](OCC)[C@H]2CCCO)cc1	18.5
Cc1cc(C(=O)NNc2ccc(F)cc2)no1	15.4
Cc1ccc([N+](=O)[O-])cc1NC(=S)NC(=O)c1ccco1	17.2
COc1ccc(COc2cc(-c3cccc(OC)c3)nc3ccc(N)cc23)cc1	7.3
CCOC(=O)CNS(=O)(=O)c1cc(-c2nnc(Nc3ccc4c(c3)OCO4)c3ccccc23)ccc1C	5.7
O=[N+]([O-])c1ccc(S(=O)(=O)NCCN2CCOCC2)cc1	12.2
COc1ccc([N+](=O)[O-])cc1NC(=O)c1cccs1	5.9
CC(C(=O)NC(C)(C)C)N1C(=O)c2cccc3cccc(c23)C1=O (stereo not drawn)	20.7
CCOc1cc(/C=N/NC(=O)c2cc(-c3cccnc3)nc3ccccc23)ccc1O	13.4
O=C(c1ccccn1)N(c1ccccc1)C1(C(=O)NC2CCCCC2)CCCCC1	4.8
Cc1ccccc1/C=C/c1nc2ccccc2c(=O)n1Cc1ccccc1	23.3
COc1cc(/C=C/C(=O)O)cc(S(=O)(=O)NCCO)c1OC	-1.8
CC(C)CCN1CCN(Cc2cccc(C(F)(F)F)c2)CC1CCO (stereo not drawn)	21.8
O=S(=O)(NCCCN1CCOCC1)c1ccc2c(c1)OCCO2	14.8
Cc1ccc(CN(C(=O)C(F)(F)F)C(C(=O)NC2CCCCC2)c2ccco2)cc1 (stereo not drawn)	7.9
Cc1ccc(CC(=O)c2ccc(Cl)cc2)cc1	9.5
COc1ccc(NCC(=O)N2CCCC2)cc1Cl	-2.4
Cc1ccc(N2CCN(C(=S)Nc3ccccc3)CC2)cc1	9.9
Cc1cccc(NC(=O)C(C)n2cc([N+](=O)[O-])cn2)n1 (stereo not drawn)	10.1
CCCCc1ccc(S(=O)(=O)NC2CCS(=O)(=O)C2)cc1 (stereo not drawn)	-7.9
CCN(CC)CCC(c1cc(OC)c(OC)c(OC)c1)c1c(OC)cc(OC)c2c(C)cc(=O)oc12 (stereo not drawn)	12.5

Arranged by count of non-hydrogen atoms (smallest number first): three of the compounds above
SMILES	Biofilm kill mix
O=[N+]([O-])c1ccc(S(=O)(=O)NCCN2CCOCC2)cc1	12.2
Cc1ccc(CN(C(=O)C(F)(F)F)C(C(=O)NC2CCCCC2)c2ccco2)cc1 (stereo not drawn)	7.9
CCOc1cc(/C=N/NC(=O)c2cc(-c3cccnc3)nc3ccccc23)ccc1O	13.4

Carrying on:
SMILES	Biofilm kill mix
O=C(CSc1nnc(-c2ccccn2)n1Cc1ccccc1)N1CCOCC1	-4.5
COc1ccc(CCNC(=O)CSCc2ccc([N+](=O)[O-])cc2)cc1	10.4
O=C(CN1CCOCC1)NN1CC(=O)N(c2ccc(Cl)cc2)CC1=O	16.5
OCCNC(=S)NCCc1ccccc1	12.6
CCNC(=O)COC(=O)c1ccc(-n2nc(C)cc2C)cc1	14.6
CNC(=O)c1csc(-c2ccc(Cl)cc2)n1	9.4
CC1CCN(c2nc(CN3CCCCC3)nc3scc(-c4ccccc4)c23)CC1	11.0
Cc1ccc(/C=C2\SC(=S)N(CC3CCCO3)C2=O)o1 (stereo not drawn)	13.6
COc1ccc(C2C(C(=O)N3CCN(c4ccccn4)CC3)CCC(=O)N2c2cc(OC)c(OC)c(OC)c2)cc1 (stereo not drawn)	11.5
COc1ccc(COc2cccnc2N)cc1	2.5
C=CCNCCCOc1ccc(C(C)(C)c2ccccc2)cc1	16.1
O=C(CN1CCN(Cc2ccc(Cl)cc2)CC1)N/N=C/c1cccs1	14.7
Cc1ccc(Nc2cc(C)c3ccc(O)cc3n2)cc1C	22.0
COc1ccc(Nc2nc3ccccc3c(=O)[nH]2)cc1	21.0
Cc1cc(F)c(F)c(C(=O)N2C(C)CCCC2C)c1Cl (stereo not drawn)	19.1
CC(=O)N(c1ccc(C)cc1)c1nc(C)cc(C)c1C#N	8.9
Fc1ccc(N2CCN(Cc3cn[nH]c3-c3ccccc3)CC2)cc1	24.5
COc1ccc(OC(=O)CN2C(=O)C3C4CCC(C4)C3C2=O)cc1 (stereo not drawn)	-4.0
Cc1cc(N/N=C/c2cccc(F)c2)nc(NCc2ccccc2)n1	29.0
CCOC(=O)N=Nc1c(O)n(CC(=O)OC)c2ccccc12	8.5
COC(=O)Cc1csc(NC(=O)CSc2nnc3ccccn23)n1	12.9
Cc1cc(NC(=O)CCC(=O)N(Cc2ccco2)C(C(=O)NCC2CCCO2)c2ccncc2)no1 (stereo not drawn)	11.7
Cc1ccc(C(=O)N/C(=C\c2ccccc2)C(=O)OCc2ccccc2)cc1	24.9
C=CCn1c(-c2ccccc2)cc(SC)c(C#N)c1=O	6.0
Cc1csc(=NC(=O)c2ccccc2)n1C	12.8

Next part:
SMILES	Biofilm kill mix
CC(O)(c1ccccc1)C(c1ccccc1)C1CCCCN1 (stereo not drawn)	16.4
N#Cc1ccccc1NC(=O)Nc1ccccc1	14.7
O=C(NCc1ccco1)c1ccc(C(F)(F)F)cc1	4.2
COc1ccc(C(=O)NCC(=O)OCC(=O)N2CCc3ccccc32)cc1	9.8
O=C(O)CCCn1cc(NC(=O)c2ccc(F)cc2)cn1	15.1
COc1ccccc1C(=O)C1CCCN(C(=O)c2cccc(-n3cccn3)c2)C1 (stereo not drawn)	21.7
Cc1ccc(Cl)c(OCCCN(C)Cc2ccccc2)c1	15.7
CCOc1ccc2nc(NCCCNC(=O)c3cc(OC)c(OC)c(OC)c3)c(C#N)cc2c1	15.1
CS(=O)(=O)c1ccc(S(=O)CC(=O)Oc2ccc(Cl)cc2)c([N+](=O)[O-])c1 (stereo not drawn)	14.7
OC(CNC1CCCC1)COCCOc1ccc(Br)cc1 (stereo not drawn)	20.6
Cc1cccc(-c2c(O)cc(=O)[nH]c2Cl)c1	16.3
Cc1ccccc1Cn1ccc(NC(=O)c2nn3cccnc3c2Cl)n1	0.9
Cc1cc(C(=O)N/N=C/c2ccncc2)c(C)o1	8.9
Cc1cccc(S(=O)(=O)Nc2ccc(-c3nc4ccc(C)cc4s3)cc2)c1	3.0
CN1CCN(C(=O)c2ccc3c(c2)OCCO3)CC1	10.1
COc1ccc(N2CCN(C(=O)c3ccc(N(C)S(=O)(=O)c4ccc(C)cc4)cc3)CC2)cc1	6.9
Cc1ccccc1NC(=O)/C(C#N)=C\c1cn(CC(=O)O)c2ccccc12	-4.5
C/C(=N\NC(=O)c1cc(-c2cccs2)nc2ccccc12)c1ccccn1	22.3
c1ccc(CNc2nc(-c3cccs3)nc3ccccc23)nc1	14.2
CONC(=O)Nc1ccccc1[N+](=O)[O-]	3.5
COc1cccc(C(=O)NN2C(=S)N(c3ccccc3)C(=O)C2CC(N)=O)c1 (stereo not drawn)	17.9
COC(=O)c1c(C)oc2ccc(N(C(=O)Oc3ccccc3)S(=O)(=O)c3ccccc3)cc12	9.1
NS(=O)(=O)c1ccc(CNC(=O)c2cc(-c3cccs3)nc3ccccc23)cc1	13.6
Cc1ccc(NC(=O)C(=O)NCCN2CCN(C(=S)Nc3ccccc3)CC2)cc1	13.4
Cc1ccc(-c2nnc3cccc(Cl)n23)cc1	7.2

Two compounds drawn at random from the list so far:
SMILES	Biofilm kill mix
N#Cc1ccccc1NC(=O)Nc1ccccc1	14.7
COc1ccc(N2CCN(C(=O)c3ccc(N(C)S(=O)(=O)c4ccc(C)cc4)cc3)CC2)cc1	6.9

Following part
SMILES	Biofilm kill mix
Cc1ccc(/C(=N/Nc2nc3ccccc3s2)C2=C(O)c3ccccc3C2=O)cc1	2.1
CCOC(=O)C1=NN(c2ccc(Cl)cc2)/C(=C/C2=NCCc3cc(OC)c(OC)cc32)S1	15.2
COC(=O)/C=C1/N/C(=N\c2nc(C)cc(C)n2)N(c2ccc(Cl)cc2)C1=O	8.1
Cc1cc(C)c(S(=O)(=O)CCC(C)C)c(=O)[nH]1	5.3
Cn1c2ccccc2c2cnn(CC(=O)N3CCCCC3)c(=O)c21	20.8
O=c1cc(CNc2ccc(Br)cc2)nc2sccn12	14.2
O=C(NCc1ccccc1)c1ccco1	8.1
CC(C)N(C(=O)COC(=O)CNS(=O)(=O)c1ccccc1F)c1ccccc1	13.3
O=C(c1ccc(OC2CCN(C(=O)c3cccnc3)CC2)cc1)N1CCCCCC1	3.3
Cc1nc(-c2c(C(=O)NNC(=O)Nc3c(C)cccc3C)noc2C)cs1	11.3
O=C(Nc1ccccc1)Nc1nnc(/C=C/c2ccccc2Cl)s1	16.7
CCN(/N=C/c1cccs1)c1cc(=O)n(C)c(=O)[nH]1	12.9
CCN1C/C(=C/c2sccc2C)c2nc3ccccc3c(C(=O)O)c2C1	3.2
CCOc1ccc(CCNC(=O)CCC(=O)Nc2ccc3nc(N4CCN(C)CC4)cc(C)c3c2)cc1OCC	7.5
O=C(Nc1ccc(NC(=O)c2cccs2)cc1Cl)c1ccco1	18.6
O=C(Nc1ccccc1Br)c1ccc(OC(=S)N2CCOCC2)cc1	11.2
O=c1c(C/C=C/c2ccccc2)c(O)ccn1CCc1c[nH]c2ccccc12	8.1
COc1ccc(CCNc2nc(-c3ccccn3)cs2)cc1OC	23.4
OCCNCc1cc(Br)ccc1OCc1ccccc1	1.3
O=c1c2cc(NC(=S)N3CCCC3)ccc2nc2n1CCCCC2	4.0
O=C1COc2ccc(C(=O)COC(=O)/C=C/c3cccc(F)c3)cc2N1	14.9
CCN(CC)CCNC(=O)c1sc2ncn(CC(=O)Nc3ccc(C)c(Cl)c3)c(=O)c2c1C	19.5
O=S(=O)(CC(O)CS(=O)(=O)c1ccc(Cl)cc1)c1ccccc1 (stereo not drawn)	16.3
CN(C)CCNc1ncnc2c1sc1nc(-c3ccccc3)c3c(c12)CCCC3	37.8
Cc1cccc(N(CC(=O)NCCSc2nc3ccccc3s2)S(=O)(=O)c2ccccc2)c1	12.5

More results follow:
SMILES	Biofilm kill mix
CCOc1ccc2nc(N3C(=O)CNC3=S)sc2c1	12.3
COc1ccc(Nc2nnc(SCC3CCCO3)s2)cc1 (stereo not drawn)	11.5
COc1ccc(C2=NN(C(=O)CSc3nnc(-c4ccccc4F)o3)C(c3ccco3)C2)cc1 (stereo not drawn)	14.5
CCCN(CCC)C(=O)CCSCCC(=O)N(CCC)CCC	10.5
O=C1CNC(=S)N1CCc1ccc(Cl)cc1	17.4
O=C(Nc1cccc(F)c1)N1CCCC(CNS(=O)(=O)Cc2ccccc2)C1 (stereo not drawn)	2.3
CCOc1ccc(NC(=O)/C=C/c2ccccc2)c([N+](=O)[O-])c1	-8.4
NS(=O)(=O)c1ccc(NC(=O)c2ccc(CNS(=O)(=O)c3cc(C(F)(F)F)ccc3Cl)cc2)cc1	8.3
O=C(/C=C/c1ccc(N2CCOCC2)cc1)c1ccccc1	0.7
CCOC(=O)CSc1nc(C)c2ccc(C)cc2n1	6.8
